Bioassay records as filed in PubChem.
Arbovirus inh = arbovirus infection inhibition | 200,000 compounds, 0.37% hits | arbovirus infection cell-based antiviral screen | inhibition, % at 10 µM | AID 1251;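 active = inhibition from about 30%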;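 note: bluetongue infection of BSR cells; cell survival read as ATP light after 72 h; 0% = infected wells without compound and 100% = uninfected wells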
YopH inh = inhibitors of Yersinia enterocolitica YopH tyrosine phosphatase; AID 898; inhibition, %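 (about 10 µM by stock and volumes)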; 140,000 compounds, 0.16% hits; fluorescence Ex485/Em525;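 active = inhibition of 50% or more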;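 note: controls were vehicle for no effect and minimum signal wells for full effect; inactives centre near -20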
RecA splice inh = blocks M. tuberculosis RecA intein splicing. 290,000 compounds, 0.75% hits. inhibition, %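 (about 9 µM by stock and volumes)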. P9WHJ3. AID 2221. cell-free RecA intein splicing, fluorescence; in the data active = inhibition above about 30%; inconclusive = no clear call, values can overlap the other calls;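 note: 0% = vehicle wells and 100% = reference inhibitor control wells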
Target sequence (P9WHJ3 whole entry, looked up, canonical isoform): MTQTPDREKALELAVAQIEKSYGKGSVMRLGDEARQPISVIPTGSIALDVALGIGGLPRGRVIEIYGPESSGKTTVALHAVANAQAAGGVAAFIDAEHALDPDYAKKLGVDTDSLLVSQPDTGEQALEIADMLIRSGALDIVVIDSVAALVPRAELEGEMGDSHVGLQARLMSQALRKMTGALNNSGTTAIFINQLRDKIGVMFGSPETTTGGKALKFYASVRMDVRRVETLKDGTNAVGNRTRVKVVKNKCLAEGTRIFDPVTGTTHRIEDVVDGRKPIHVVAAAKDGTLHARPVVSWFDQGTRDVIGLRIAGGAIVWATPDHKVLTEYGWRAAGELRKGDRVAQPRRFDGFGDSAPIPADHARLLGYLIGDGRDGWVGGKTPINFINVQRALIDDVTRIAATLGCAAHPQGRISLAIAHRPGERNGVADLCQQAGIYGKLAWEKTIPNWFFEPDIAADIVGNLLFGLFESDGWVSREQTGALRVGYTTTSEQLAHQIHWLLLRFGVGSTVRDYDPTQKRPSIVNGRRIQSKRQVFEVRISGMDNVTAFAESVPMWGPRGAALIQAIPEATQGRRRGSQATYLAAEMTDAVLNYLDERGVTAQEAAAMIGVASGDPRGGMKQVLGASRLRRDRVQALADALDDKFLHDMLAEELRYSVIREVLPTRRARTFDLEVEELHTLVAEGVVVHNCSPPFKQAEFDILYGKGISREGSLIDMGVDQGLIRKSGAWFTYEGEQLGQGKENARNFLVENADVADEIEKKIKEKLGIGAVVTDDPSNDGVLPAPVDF
Mtb H37Rv = M. tuberculosis H37Rv growth inhibitors, H37Rv strain (AID 1626); M. tuberculosis H37Rv growth inhibition; higher % means a stronger effect; inhibition, % at 10 µM, or IC50 in µM where a hit was titrated; 220,000 compounds, 0.95% hits;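 active = confirmed in a dose series; inconclusive = inhibition above 80% but not taken into the dose series; inactive = below 80% or under 30% at every dose of the series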;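 note: bacteria incubated seven days before Alamar blue readout; 0% = bacteria only wells and 100% = bacteria with antibiotic wells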
Mtb betalactam = beta-lactam sensitization of Mtb H37Rv; M. tuberculosis H37Rv growth with meropenem, percent inhibition; hits of this screen are not shown here; inhibition, % at 25 µM; 330,000 compounds, 0.27% hits;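 active = about 74% or more and at least 40 points above the plate without the antibiotic, then above 30% in a dose series; inconclusive = first-round hits that could not be retested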;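 note: growth measured after seven days incubation then overnight dye step; 0% = bacteria only wells and 100% = bacteria with antibiotic; twin plates without the antibiotic show which effects depend on it; some results filed as inactive read as strong as hits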
Arbovirus inh repeat = further read-out of Arbovirus inh, marked with its call; inhibition, %; measured here: 10K subset replicate screen; many hits read low in the repeat;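 first of two repeat runs on a subset; 0% = infected and 100% = uninfected wells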
* marks the source's active call; other numbers are inactive results; ? = inconclusive; / = not tested or not shown. A portion of the library. The share of hits here may be higher or lower than overall.

SMILES | Arbovirus inh | YopH inh | RecA splice inh | Mtb H37Rv | Mtb betalactam | others
COc1cccc(C2NC(=S)NC3=C2CCc2ccccc23)c1 (centres undefined) | -5 | -5 | 5.4 | 2% | -6
CN1CCN(c2ccc(Cl)cc2NC(=O)CCN2C(=O)c3ccccc3C2=O)CC1 | 8 | / | 1.0 | -1% | -5
CCOc1ccccc1N1CCN(C(=O)/C=C/c2cccc([N+](=O)[O-])c2)CC1 | 10 | -23 | -2.4 | 5% | 1
Cc1ccc(N2C(=O)c3ccccc3NC2C(C)Cc2ccc3c(c2)OCO3)cc1 (centres undefined) | 3 | 9 | 20 | 7% | 58
CCOC(=O)C1(Cc2cccc(OC)c2)CCN(Cc2cccn2-c2nccs2)CC1 | 11 | / | 1.9 | 7% | -1
CCOc1ccccc1NC(=O)NC(C)c1ccncc1 (centres undefined) | 2 | / | 0.3 | 2% | 3
CCN(CC)C(=S)SCC(=O)c1ccccc1 | -2 | -33 | 3.5 | -2% | 3
COc1cccc(CN(C)C(=O)CNC(=O)c2ccc3c(c2)OCO3)c1OC | / | / | 1.3 | / | -22
CCCCC(=O)NC(=S)Nc1cccc(NC(=O)c2ccco2)c1 | 10 | -25 | 1.3 | 16% | 5
O=C(NC(=S)NCC1CCCO1)c1ccc(Cl)cc1Cl (centres undefined) | -2 | -26 | 6.4 | 0% | -6
O=C(CCc1ccccc1)N=C1SC2CS(=O)(=O)CC2N1c1ccccc1 (centres undefined) | / | / | 1.7 | / | -4
Cc1[nH]c2ccccc2c1C(=O)C(=O)NCC1CCCO1 (centres undefined) | 8 | / | -6.0 | 7% | -11
CCOc1ccccc1N=Nc1c(C)[nH]n(C(N)=S)c1=O | / | / | -1.9 | / | 99
CCOC(=O)c1ccc(-c2ccc(/C=N/NC(=O)Cc3nnc(N)s3)o2)cc1 | / | / | / | 34% | 0
COc1ccc(OCC(O)CN2CCc3ccccc3C2)cc1 (centres undefined) | / | / | -0.9 | / | -2
Nc1n[nH]c(N)c1N=Nc1ccccc1 | -3 | / | / | -3% | 4
O=C(CSc1nnc(-c2ccccc2O)o1)N1CCc2ccccc2C1 | 2 | -4 | -3.8 | ? | 99
COc1ccccc1NC(=O)c1cc(Sc2nncn2C)nc2ccccc12 | 7 | -43 | 2.3 | -3% | 2
Cc1ccc(-n2nc(C)c3c(C)c(CCC(=O)NCC4CCCO4)c(=O)n(C)c32)cc1 (centres undefined) | / | / | -2.9 | / | 1
CCSc1nnc(NC(=O)C(C(F)(F)F)C(F)(F)F)s1 | 10 | -42 | 16 | -4% | -23
CC(=O)OC1N=C(c2ccccc2)c2cc(Br)ccc2NC1=O (centres undefined) | 14 | -22 | -0.3 | -8% | 0
CCN1C(=O)c2ccccc2S(=O)(=O)c2ccc(C(=O)NCC(OC)OC)cc21 | / | / | 0.3 | / | -5
Cc1ccc(NC(=O)c2ccco2)c(NC(=O)c2ccccc2)c1 | / | / | -0.7 | / | 2
Cc1cccc(NC(=O)CSc2nc3ccccc3o2)c1 | 1 | -29 | / | -8% | -4
CCO[C@@H]1OC(C(=O)N2CCN(Cc3ccc4c(c3)OCO4)CC2)=C[C@H](c2cn(C(C)=O)c3ccccc23)[C@H]1CCCO | -13 | / | 2.0 | 2% | 38

4 successive records from above, quoted:
SMILES | Arbovirus inh | YopH inh | RecA splice inh | Mtb H37Rv | Mtb betalactam | others
COc1cccc(C2NC(=S)NC3=C2CCc2ccccc23)c1 (centres undefined) | -5 | -5 | 5.4 | 2% | -6
CN1CCN(c2ccc(Cl)cc2NC(=O)CCN2C(=O)c3ccccc3C2=O)CC1 | 8 | / | 1.0 | -1% | -5
CCOc1ccccc1N1CCN(C(=O)/C=C/c2cccc([N+](=O)[O-])c2)CC1 | 10 | -23 | -2.4 | 5% | 1
Cc1ccc(N2C(=O)c3ccccc3NC2C(C)Cc2ccc3c(c2)OCO3)cc1 (centres undefined) | 3 | 9 | 20 | 7% | 58

New compounds follow:
SMILES | Arbovirus inh | YopH inh | RecA splice inh | Mtb H37Rv | Mtb betalactam | others
c1ccc2c(NCC3CCCO3)nc(-c3ccncc3)nc2c1 (centres undefined) | 3 | -37 | 2.2 | 6% | -4
NC(=O)N1CCCC1C(=O)Nc1ccc(Cl)c(Cl)c1 (centres undefined) | 1 | -10 | 0.2 | 8% | -8
CCOC(=O)c1c(-c2ccc(-c3ccccc3)cc2)csc1NC(=O)c1cccc(N2C(=O)CCC2=O)c1 | -18 | -6 | 0.4 | -5% | 13
Cc1noc(C)c1CSc1nc2ccccc2nc1NS(=O)(=O)c1ccc(Cl)cc1 | -39 | -40 | -2.0 | -13% | -1
COc1ccc(-c2nc3ccccc3c(C(=O)Nc3ccc(S(=O)(=O)Nc4cc(C)on4)cc3)c2C)cc1 | -6 | -1 | 5.3 | 0% | 3
CN(c1ccccc1)c1nc(N)c([N+](=O)[O-])c(Nc2ccc(F)cc2)n1 | / | / | -1.8 | / | ?
COc1ccc(Br)cc1C1Nc2ccccc2C(=O)N1NC(=O)c1ccncc1 (centres undefined) | 1 | 3 | 1.3 | 40% | 95
O=C1CCCc2ccccc2N1Cc1cccc(F)c1 | 9 | / | 2.4 | -1% | 6
Cc1n(-c2ccccc2)c2ccc(Cl)cc2[n+]1CCO | 1 | / | 0.7 | 3% | 1
O=C(NCCO)c1cccc2c1-c1ccccc1C2=O | 10 | -16 | -2.1 | -5% | -8
O=C(Nc1ccccc1C(=O)NC(Cc1ccc(O)cc1)C(=O)O)c1ccccc1 (centres undefined) | 6 | / | 0.3 | 4% | 2
CCCOc1ccc(N2C(=O)CC(N3CCCC(C(=O)N4CCCC4)C3)C2=O)cc1 (centres undefined) | 2 | -4 | 1.4 | -6% | 7
COc1ccc(NCc2nnc(SCC(=O)Nc3ccc(OC)cc3OC)o2)cc1 | 4 | / | -1.7 | -10% | 1
O=C1C=C(c2ccc3[nH]ccc3c2)CCC1 | / | / | 1.3 | 1% | 0
COc1ccc(C2C(C#N)=C(N)Oc3c2oc(CO)cc3=O)cc1 (centres undefined) | 1 | / | -1.2 | 4% | -3
CCc1nc2ccccc2n1CC(=O)N(C(C)CC)C1CCS(=O)(=O)C1 (centres undefined) | 3 | -26 | / | -5% | -6
O=C1CC(c2ccc(F)cc2)CC2=C1C=Nc1ccccc1N2 (centres undefined) | 18 | / | 11 | -5% | 4
O=C(CNc1ccc(Br)cc1)c1ccc(Br)s1 | / | / | 4.6 | / | -1
COc1ccccc1[C@@H]1C(c2cccc(Cl)c2)=NN(c2ccccc2)[C@H]1C(=O)N1CCOC1=O | -7 | -25 | -170 | 1% | 2
Cc1onc(-c2ccccc2Cl)c1C(=O)NCCn1c(C)cc2ccccc21 | 2 | / | -69 | / | -8
COc1ccc(-c2csc(NC(=O)C3=COCCO3)n2)c(OC)c1 | / | / | 0.9 | / | 49
O=C(NCCCN1CCOCC1)c1onc(CSc2ccccn2)c1C(=O)NCCCN1CCOCC1 | / | / | -0.3 | -4% | -3
COc1cccc(/C=N/NC(=O)c2c(C)nc3ccc(Br)cn23)c1O | -26 | / | 6.0 | 0% | 10
Cc1noc(C)c1S(=O)(=O)Nc1cccc(C(F)(F)F)c1 | / | / | -0.1 | / | -7
Cc1cc(C)n2c(SCC(=O)NCc3ccc4c(c3)OCO4)nnc2n1 | / | / | -0.5 | 0% | -3
More entries
SMILES | Arbovirus inh | YopH inh | RecA splice inh | Mtb H37Rv | Mtb betalactam | others
CSc1cccc(NC(=O)COc2ccccc2)c1 | 3 | -80 | / | 68% | -1
CCn1c(SCc2nc3scc(-c4ccccc4)c3c(=O)[nH]2)nnc1-c1ccc(Cl)cc1 | -6 | -22 | -0.2 | -3% | 5
O=C1NN=C(c2ccc(Cl)cc2)CC1c1cccc(Br)c1 (centres undefined) | 16 | / | 3.8 | 4% | 8
Cc1ccccc1C(=O)Nc1cccc(-c2cn3ccccc3n2)c1 | -10 | / | 0.6 | 3% | 0
Cc1ccccc1OCCC(=O)OCC(=O)NC(C)c1ccccc1 (centres undefined) | -3 | / | -0.2 | 2% | -2
COC(=O)CSc1ncnc2c1sc1nc3c(cc12)COC(C)(C)C3 | 1 | / | -1.2 | 3.1µM* | 98
COCCN(Cc1cc2ccc(C)cc2n2nnnc12)Cc1nnnn1C(C)(C)C | -5 | -19 | -3.4 | -7% | -3
COc1ccc(NC(=O)CNC(=O)c2c(C)nn(C)c2Cl)cc1 | 1 | / | -2.3 | 6% | 0
Cc1noc(C)c1CSCC(=O)Nc1cc(S(=O)(=O)N2CCOCC2)ccc1OCC(F)(F)F | / | / | -0.2 | / | -9
CC1(C)CC2CC(C)(CN2C(=O)C23CCC(C)(C(=O)O2)C3(C)C)C1 (centres undefined) | 2 | 6 | -3.5 | -3% | 4 | Arbovirus inh repeat=0
CCOC(=O)N1CCN(C(=O)COC(=O)CN(C)S(=O)(=O)c2ccc(NC(C)=O)cc2)CC1 | / | / | -1.6 | / | -13
COc1ccc2c(Cl)c(C(=O)N/N=C/c3ccc4c(c3)OCO4)sc2c1 | -3 | -29 | -1.3 | 4% | 3
CC(C)c1c(C(=O)N/N=C/c2ccc(Cl)cc2Cl)nnn1-c1nonc1N | / | / | -0.7 | / | 4
Cc1cccc(CCNC(=O)c2nnc(Cc3ccc(Cl)cc3)o2)c1 | 9 | -30 | -0.2 | / | 3 | Arbovirus inh repeat=5
O=C(/C=C/c1ccccc1F)N1CCN(c2ccccn2)CC1 | / | / | 1.6 | / | -5
CC(OC(=O)c1ccc(-n2cnnn2)cc1)C(=O)NCc1ccccc1 (centres undefined) | / | / | -1.0 | / | 5
CN(C)c1nc(OCCNC(=O)COc2ccc(Cl)cc2Cl)nc(N2CCOCC2)n1 | 4 | -31 | 1.6 | -3% | 2
CCCCC(=O)NC(=S)Nc1cccc(Cl)c1N1CCCCC1 | -12 | -17 | 8.5 | 17% | 6
COC(=O)CCC(=O)OC1(C)C(=O)C2=CN(CCN3CCOCC3)C(c3ccc(OC)cc3)=CC2=C(Br)C1=O (centres undefined) | / | / | 9.9 | -8% | 4
Clc1ccc(-c2cn3cc(Br)ccc3n2)cc1Cl | -2 | -27 | 3.0 | 3% | 3
OC1(CN2CCOCC2)C2CC3CC(C2)CC1C3 (centres undefined) | -1 | -41 | 0.4 | 5% | -13
O=C(NCCN1CCOCC1)c1ccc2c(c1)N(Cc1ccc(F)cc1)C(=O)CS2 | -7 | -21 | 0.2 | 7% | 0 | Arbovirus inh repeat=4
CCOC(=O)N1CCN(C(=O)c2cn(CC)c3ccc(S(=O)(=O)N(C)C4CCCCC4)cc3c2=O)CC1 | / | / | -1.5 | / | -4
COc1cc(Br)cc(/C=N/NC(=O)Cc2ccccc2)c1O | / | / | -1.4 | / | 90
O=C(OC(C(=O)Nc1cc(Cl)cc(Cl)c1)c1ccccc1)C1=COCCO1 (centres undefined) | -9 | -21 | 5.1 | 54% | 77

Continued, overlapping the part above by 3 compounds.
SMILES | Arbovirus inh | YopH inh | RecA splice inh | Mtb H37Rv | Mtb betalactam | others
CCOC(=O)N1CCN(C(=O)c2cn(CC)c3ccc(S(=O)(=O)N(C)C4CCCCC4)cc3c2=O)CC1 | / | / | -1.5 | / | -4
COc1cc(Br)cc(/C=N/NC(=O)Cc2ccccc2)c1O | / | / | -1.4 | / | 90
O=C(OC(C(=O)Nc1cc(Cl)cc(Cl)c1)c1ccccc1)C1=COCCO1 (centres undefined) | -9 | -21 | 5.1 | 54% | 77
Cc1ccc(C(=O)N/C(=C\Cl)P(=O)(c2ccccc2)c2ccccc2)cc1 | -5 | -22 | 0.5 | 2% | -4
O=C(O)c1ccc(N/N=C/c2ccncc2)cc1 | / | / | -1.1 | / | 1
Cc1nn(-c2ccccc2)c2c1C1(C(=O)N(C)c3ccccc31)C(C#N)=C(N)O2 (centres undefined) | -13 | 14 | 18 | -8% | 79
CC(C)(C)NC(=O)CN(C(=O)c1snc(C(=O)NC2CCCCC2)c1N)c1ccccc1F | / | / | -1.7 | / | 8
Nc1nnc(SCn2nnc3ccccc3c2=O)s1 | 20 | / | -5.2 | 0% | 2
NC(=O)COc1ccccc1 | / | / | 1.1 | -10% | 5
O=C(CSc1nc2c(cnn2-c2ccc(F)cc2)c(=O)[nH]1)N1CCCCCC1 | 10 | -20 | 0.2 | 6% | -3 | Arbovirus inh repeat=-3
C/C(=N\NC(=O)c1cc(O)ccc1O)c1cccc(NC(=O)c2cccc(Cl)c2)c1 | / | / | -6.1 | / | -9
Cc1nn(Cc2ccccc2)c(Cl)c1C(=O)OCc1nnc(-c2ccc(Cl)cc2)o1 | -6 | -45 | 3.1 | 6% | 1
c1ccc2c(N3CCCCC3)nc(N3CCCCC3)nc2c1 | 12 | 4 | -1.1 | / | 0
Nc1nc(SCC(=O)Nc2ccc([N+](=O)[O-])cc2)n[nH]1 | -3 | / | -5.1 | -8% | -2
